Screens: PubChem, Sanford-Burnham Center for Chemical Genomics
HNF4A DNA FP – change in binding of human HNF4A to DNA, primary screen, biochemical, fluorescence polarization, FITC-DNA | actives 0.3% (n = 360,000) | AID 1224865, 2016 | Hepatocyte nuclear factor 4-alpha (Homo sapiens), P41235 | activity change, % at 10 µM | 1 h; in the data active = activity change above about 30%, passing the limit was not always enough;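 also: controls were the assay level and a saturating level of protein; the project sought stronger binding though the title names inhibitors; some compounds called inactive have numbers as strong as hits; positive values seem to mean higher polarization but the record does not say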
Target sequence (P41235 whole entry, looked up): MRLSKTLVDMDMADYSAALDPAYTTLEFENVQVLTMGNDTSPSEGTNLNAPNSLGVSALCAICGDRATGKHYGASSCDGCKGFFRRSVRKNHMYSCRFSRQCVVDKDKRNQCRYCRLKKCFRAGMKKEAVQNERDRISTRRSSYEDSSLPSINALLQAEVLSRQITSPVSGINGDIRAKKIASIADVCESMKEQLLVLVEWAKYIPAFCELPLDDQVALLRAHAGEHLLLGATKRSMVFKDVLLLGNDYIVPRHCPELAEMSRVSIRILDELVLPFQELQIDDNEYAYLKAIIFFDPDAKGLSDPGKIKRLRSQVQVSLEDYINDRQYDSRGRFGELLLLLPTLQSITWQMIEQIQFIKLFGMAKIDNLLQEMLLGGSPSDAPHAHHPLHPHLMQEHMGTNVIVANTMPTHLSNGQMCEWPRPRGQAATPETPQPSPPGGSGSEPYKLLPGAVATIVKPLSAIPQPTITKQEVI
Active calls of the source: *.

`O=C1c2ccccc2C(c2nnnn2-c2ccc3c(c2)OCCO3)N1CCc1c[nH]c2ccccc12` (stereo not given) gave HNF4A DNA FP -2.2.
CCOC(=O)Cc1ccc(Nc2nc(NCc3ccccc3)nc3ccsc23)cc1 was read as HNF4A DNA FP -1.6.
COc1ccc(CNC(=O)C2(C)Cc3c(-c4cccc(C(N)=O)c4)ccnc3O2)cc1OC (stereo not given) was read as HNF4A DNA FP -0.3.
For CCOC(=O)N1CCN(C(=O)CCN2C(=O)/C(=C\c3ccc(OC)c(OC)c3)SC2=S)CC1 the results were HNF4A DNA FP 15.2.
`C=CCNc1nc2cc(-c3cccc(NC(C)=O)c3)sc2c(=O)n1C` gave HNF4A DNA FP -2.7.
For COc1ccc(-c2noc(-c3csc([C@@H]4C[C@H](O)[C@@H](CO)O4)n3)n2)cc1OC the results were HNF4A DNA FP -2.0.
`O=C1NC[C@H](Cc2ccccc2)N(CCc2cc(C(F)(F)F)cc(C(F)(F)F)c2)C1=O` gave HNF4A DNA FP -0.7.
Screening OC(c1cccc(Cl)c1)c1nc(-c2ccc(F)c(Cl)c2)cs1 (stereo not given) returned HNF4A DNA FP -3.8.
Screening CCCS(=O)(=O)NC(=O)C1(C)CCN(C(=O)c2cc(OC)c(OC)c(OC)c2)C1 (stereo not given) returned HNF4A DNA FP -2.0.
Screening Cc1ccc([C@H]2C[C@@H](n3cc(COC(=O)c4ccccc4)nn3)[C@H](O)CN2C(=O)C2CCCCC2)cc1 returned HNF4A DNA FP -4.7.

Six compounds already listed, sorted by molar mass, lowest first:
`C=CCNc1nc2cc(-c3cccc(NC(C)=O)c3)sc2c(=O)n1C` gave HNF4A DNA FP -2.7.
CCOC(=O)Cc1ccc(Nc2nc(NCc3ccccc3)nc3ccsc23)cc1 was read as HNF4A DNA FP -1.6.
`O=C1NC[C@H](Cc2ccccc2)N(CCc2cc(C(F)(F)F)cc(C(F)(F)F)c2)C1=O` gave HNF4A DNA FP -0.7.
`O=C1c2ccccc2C(c2nnnn2-c2ccc3c(c2)OCCO3)N1CCc1c[nH]c2ccccc12` (stereo not given) gave HNF4A DNA FP -2.2.
For CCOC(=O)N1CCN(C(=O)CCN2C(=O)/C(=C\c3ccc(OC)c(OC)c3)SC2=S)CC1 the results were HNF4A DNA FP 15.2.
Screening Cc1ccc([C@H]2C[C@@H](n3cc(COC(=O)c4ccccc4)nn3)[C@H](O)CN2C(=O)C2CCCCC2)cc1 returned HNF4A DNA FP -4.7.

Other results follow.
For COc1ccc(C(C(=O)Nc2c(C)cccc2C)n2c(=O)c(-c3ccccc3)nc3ccccc32)cc1 (stereo not given) the results were HNF4A DNA FP 3.1.
`CC1CCN(C(=O)CCC(=O)Nc2ccc([N+](=O)[O-])cc2)CC1` gave HNF4A DNA FP 0.9.
`CC(C)c1ccc(CN2CCC(C)(Oc3ccc(Cl)cc3)C2)cc1` (stereo not given) gave HNF4A DNA FP 3.5.
C[C@@H](c1ccccc1)N1C[C@H](COCc2ccccc2)Oc2cc(N3CC[C@H](O)C3)ccc2S1(=O)=O was read as HNF4A DNA FP 2.0.
`O=C(NCc1ccccc1)c1cc(C2COCCN2C(=O)c2ccccc2)on1` (stereo not given) gave HNF4A DNA FP 0.5.
For CCOC(=O)N1CCN(C(=O)C[C@@H]2C[C@@]3(C(=O)OC)CCCCC=C3N(Cc3ccccc3)C2=O)CC1 the results were HNF4A DNA FP -0.7.
Screening CCc1nc2ccc(C(=O)N(C)Cc3ccccc3)cn2c1N(CC)CCN(C)C returned HNF4A DNA FP 1.1.
Screening COc1ccc(CCNC(=O)Nc2ccc3c(c2)c(=O)n(C)n3CC=C(C)C)cc1OC returned HNF4A DNA FP 2.2.
For CC(O)(c1ccc(F)c(F)c1)c1nc(-c2ccc3ccccc3c2)cs1 (stereo not given) the results were HNF4A DNA FP -0.3.
CC(=O)NC(c1cccc(F)c1)c1nc(-c2cnn(C)c2)cs1 (stereo not given) was read as HNF4A DNA FP 2.0.
`CCCCCC(=O)N1C[C@@H](O)[C@H](n2cc(COC(=O)c3ccccc3)nn2)C[C@@H]1c1ccc(C)cc1` gave HNF4A DNA FP -0.5.
Screening CCCCNC(=O)C1(C)CCN1C(=O)c1cc(F)ccc1C (stereo not given) returned HNF4A DNA FP 3.6.
`COCCNc1nc(Oc2ccc(NC(C)=O)cc2)c2sc(-c3ccccc3)cc2n1` gave HNF4A DNA FP 8.9.
Screening Brc1ccc2nc(-c3ccccc3)c(Cc3ccccc3)n2c1 returned HNF4A DNA FP -1.5.
Cc1ccc(-c2nc3ccc(Cl)cn3c2CC(C)(C)C)cc1 was read as HNF4A DNA FP -1.9.
For COC(=O)[C@@]12C[C@@H](CC(=O)NCCCN3CCCC3=O)C(=O)N(Cc3cccc4ccccc34)C1=CCC(C)(C)C2 the results were HNF4A DNA FP -0.8.
CC(=O)Nc1cccc(-c2cc(NC(C)=O)c3ncc(-c4cccc(C(F)(F)F)c4)n3c2)c1 was read as HNF4A DNA FP 11.8.
CCc1nc2ccc(C(=O)N3CCN(S(=O)(=O)CC)CC3)cn2c1N(C=O)CCC(C)C was read as HNF4A DNA FP 3.2.
COc1ccc(-c2nc3ccc(Cl)cn3c2Cc2ccccc2C(F)(F)F)cc1OC was read as HNF4A DNA FP 7.0.
`CN(C)CCNC(=O)c1cccc(-c2cnc3c(NC=O)cc(-c4ccc(C(=O)N5CCOCC5)cc4)cn23)c1` gave HNF4A DNA FP 1.4.
For COCCNc1nc2cc(-c3ccc(C)cc3)sc2c(=O)n1C the results were HNF4A DNA FP -1.3.
For CNC(=O)C[C@@H]1C(=O)N(c2ccc(OC)cc2)CC1(C)C the results were HNF4A DNA FP -1.9.
CC1(C)CCCC2(C)C1CCC1(C)OC(=O)CCC12 (stereo not given) was read as HNF4A DNA FP 12.6.
`OC[C@@H]1CN(C2CCCC2)C[C@H](n2cnc3c(N4CCCC4)ncnc32)O1` gave HNF4A DNA FP 2.0.
`CCC(c1nnnn1-c1ccc2c(c1)OCCO2)N1CCN(C(=O)C2CCCO2)CC1` (stereo not given) gave HNF4A DNA FP 2.9.
Screening COc1ccc(N2CCN(c3cc(C(=O)NC4CCCCC4)ncn3)CC2)cc1OC returned HNF4A DNA FP 2.5.
For O=C(CC[C@H]1O[C@@H](n2ccc(=O)[nH]c2=O)[C@H](O)[C@@H]1O)N1CCN(Cc2cccc3ccccc23)CC1 the results were HNF4A DNA FP -2.2.
For COc1ccc([C@H]2C[C@@H](n3cc(COC(=O)c4ccccc4)nn3)[C@H](O)CN2C(=O)c2cccs2)cc1 the results were HNF4A DNA FP -0.9.
For CC(C)C(=O)N1CCCC1(C)C(=O)Nc1ccccc1 (stereo not given) the results were HNF4A DNA FP 4.1.
For CNc1cccc(-c2ccc(N3CCN(C)CC3)nc2)n1 the results were HNF4A DNA FP 0.3.
For O=C(CC1CCCC1)NCCS(=O)(=O)N1CCN(c2ccccc2)CC1 the results were HNF4A DNA FP -2.5.
OCCN1CCN(c2nccn3ccnc23)CC1 was read as HNF4A DNA FP -0.2.
For Cc1ccc(NC(=O)c2cc(S(=O)(=O)N3CCCCC3)ccc2N2CCOCC2)c(C)c1 the results were HNF4A DNA FP 0.9.
Screening CCOC(=O)C1=CC[C@@H](c2ccc(F)cc2)N(S(=O)(=O)c2ccc(C)cc2)[C@H]1c1ccccc1 returned HNF4A DNA FP 0.0.
`CCc1cnc(Nc2nc(C(N)Cc3ccc(F)cc3)cs2)nc1` (stereo not given) gave HNF4A DNA FP 2.6.
For CCOc1ccc(S(=O)(=O)NCCC(=O)NCC(c2ccc(OC)cc2)N2CCOCC2)cc1 (stereo not given) the results were HNF4A DNA FP 2.7.
`CCOC(=O)CCCCCC(=O)Nc1ccc2c(c1)C(=O)N([C@H](C)CO)C[C@@H](C)[C@@H](CN(C)C(=O)CCC(F)(F)F)OCCCC[C@H](C)O2` gave HNF4A DNA FP -0.2.
`CC1(Cc2ccc(C(F)(F)F)nc2)C(=O)Nc2cc(-c3ccccc3Cl)ccc21` (stereo not given) gave HNF4A DNA FP 1.2.
CC1NC(=O)c2cccnc2-n2c1nc1cc(F)c(F)cc1c2=O (stereo not given) was read as HNF4A DNA FP -1.7.
CO[C@@H]1CN(C)C(=O)c2cc(NC(=O)NC3CCCCC3)ccc2OC[C@@H](C)N(CCc2ccccc2)C[C@@H]1C was read as HNF4A DNA FP 0.3.

Brought forward from above: two entries, then new ones.
CC1NC(=O)c2cccnc2-n2c1nc1cc(F)c(F)cc1c2=O (stereo not given) was read as HNF4A DNA FP -1.7.
CO[C@@H]1CN(C)C(=O)c2cc(NC(=O)NC3CCCCC3)ccc2OC[C@@H](C)N(CCc2ccccc2)C[C@@H]1C was read as HNF4A DNA FP 0.3.
Screening COC(=O)CCCn1cc(CN2CC(N(C)C)CS2(=O)=O)nn1 (stereo not given) returned HNF4A DNA FP -1.4.
Screening CC(C)Oc1cccc(NC(=O)C2(C)CCN2C(C)C)c1 (stereo not given) returned HNF4A DNA FP -0.8.
For COCCNC(=O)C1CCCN(C(=O)c2ccc3sccc3c2)CC1 (stereo not given) the results were HNF4A DNA FP -2.1.
Screening COc1cccc(C(C(=O)NCc2ccccc2)N2CCN(c3ccccc3F)CC2)c1OC (stereo not given) returned HNF4A DNA FP 2.4.
`CCCc1c(-c2ccc(Cl)cc2)ncn1CCc1ccccc1OC` gave HNF4A DNA FP 3.5.
For CCC(c1nnnn1-c1c(C)cccc1C)N1CCN(CCN2CCOCC2)CC1 (stereo not given) the results were HNF4A DNA FP 27.5.
For CC1=C(C(=O)N(C(C)C)C(C)C)CC(CC(=O)NCc2cccc3ccccc23)C(=O)N1Cc1ccc(C(C)(C)C)cc1 (stereo not given) the results were HNF4A DNA FP 0.7.
Screening CN1CCCC1CN1CCCC1 (stereo not given) returned HNF4A DNA FP -0.7.
CCOC(=O)C1(C)CCN1C(=O)c1ccc(F)c(Cl)c1 (stereo not given) was read as HNF4A DNA FP 1.6.
For COc1cccc(C(O)c2nc(-c3cccc(CO)c3)cs2)c1 (stereo not given) the results were HNF4A DNA FP -0.8.
For Cc1ccc(CN2C(=O)C(CC(C)C)Nc3ncnc(N4CCCCC4)c32)cc1 (stereo not given) the results were HNF4A DNA FP 8.1.
For COc1c(C)cc(C(O)c2ncc(-c3cccc4ccccc34)[nH]2)cc1C (stereo not given) the results were HNF4A DNA FP -1.1.
Screening NC(=O)c1cccc(-c2ccnc3c2CC(C(=O)Nc2cccc(C(F)(F)F)c2)O3)c1 (stereo not given) returned HNF4A DNA FP 4.3.
`CC(C)C[C@@H](CN1CCC[C@@H]1CN1C(=S)NC[C@@H]1Cc1ccc(O)cc1)N1C[C@H](Cc2ccc(O)cc2)N(CCc2ccccc2)C1=S` gave HNF4A DNA FP -0.2.
For Cc1cccc(C)c1Cn1c(C)c(C(=O)NCc2ccccc2C(F)(F)F)sc1=O the results were HNF4A DNA FP -1.0.
For Cc1ccc(Cl)cc1-c1cc(C(=O)NCC2CCCCC2)[nH]n1 the results were HNF4A DNA FP 2.0.
Screening COc1ccccc1-c1cnc(C(O)c2cccc(C)c2C)[nH]1 (stereo not given) returned HNF4A DNA FP 0.4.
COC(=O)[C@]12CCCCC=C1N(Cc1cccc3ccccc13)C(=O)[C@H](CC(=O)NCCCCc1ccccc1)C2 was read as HNF4A DNA FP -2.6.
For COCCNC(=O)C1CCCN(C(=O)Cc2cccc3ccccc23)CC1 (stereo not given) the results were HNF4A DNA FP -0.3.
CCCCCNC(=O)C(CCc1ccccc1)n1c(=O)c(-c2cc3ccccc3[nH]2)nc2ccccc21 (stereo not given) was read as HNF4A DNA FP 3.0.

Next section; it opens with the 5 that closed the last part.
For Cc1ccc(Cl)cc1-c1cc(C(=O)NCC2CCCCC2)[nH]n1 the results were HNF4A DNA FP 2.0.
Screening COc1ccccc1-c1cnc(C(O)c2cccc(C)c2C)[nH]1 (stereo not given) returned HNF4A DNA FP 0.4.
COC(=O)[C@]12CCCCC=C1N(Cc1cccc3ccccc13)C(=O)[C@H](CC(=O)NCCCCc1ccccc1)C2 was read as HNF4A DNA FP -2.6.
For COCCNC(=O)C1CCCN(C(=O)Cc2cccc3ccccc23)CC1 (stereo not given) the results were HNF4A DNA FP -0.3.
CCCCCNC(=O)C(CCc1ccccc1)n1c(=O)c(-c2cc3ccccc3[nH]2)nc2ccccc21 (stereo not given) was read as HNF4A DNA FP 3.0.
For CC(C)CNC(=O)C1(C)CCCN1C(=O)c1cccnc1 (stereo not given) the results were HNF4A DNA FP -2.3.
`COc1ccc(NC(=O)c2cc(-c3cc(Cl)ccc3C)n[nH]2)c(OC)c1` gave HNF4A DNA FP -0.4.
Screening CC1(Cc2ccccc2C#N)C(=O)Nc2ccc(-c3ccccc3)cc21 (stereo not given) returned HNF4A DNA FP -4.2.
For C[C@@H]1CN([C@H](C)CO)C(=O)c2cc(Br)cnc2O[C@@H]1CN(C)Cc1cncnc1 the results were HNF4A DNA FP 3.1.
Screening CC(C)CC(N)c1csc(Nc2cc(Oc3ccccc3)ncn2)n1 (stereo not given) returned HNF4A DNA FP 4.3.
`O=C(NCC1CC1)C1Cc2c(-c3ccc4c(c3)OCO4)ccnc2O1` (stereo not given) gave HNF4A DNA FP 1.9.
`COc1cccc(CNc2nc3cc(-c4ccc(F)cc4)sc3c(=O)n2C)c1OC` gave HNF4A DNA FP -3.6.
C[C@H](CO)N1C[C@H](C)[C@@H](CN(C)Cc2cccnc2)OCc2cnnn2CCCC1=O was read as HNF4A DNA FP 0.4.
O=C(Nc1ccc(S(=O)(=O)Nc2nccs2)cc1)c1ccncc1 was read as HNF4A DNA FP -1.6.
Screening CC1(C(=O)NS(=O)(=O)C2CC2)CCCN(C(=O)Cc2ccc(F)cc2)C1 (stereo not given) returned HNF4A DNA FP 0.6.
For COc1cccc(-c2cnc(C(O)c3ccc(C(C)(C)C)cc3)[nH]2)c1 (stereo not given) the results were HNF4A DNA FP 1.4.
Screening COc1ccc(N2CCN(c3cncc(C)n3)CC2)cc1 returned HNF4A DNA FP 0.3.
Screening COCOc1cccc(CN2CCC2(C)C(=O)Nc2ccc(C)c(O)c2)c1 (stereo not given) returned HNF4A DNA FP -1.0.
`CCOC(=O)C1(C)CCN1C(=O)c1ccc(Cl)nc1` (stereo not given) gave HNF4A DNA FP 0.3.
Screening CC(C)(C)Nc1c(C2CCNCC2)nc2c(OCc3ccccc3)cccn12 returned HNF4A DNA FP -2.9.
For CCN(CC)c1ccc(NC(=O)COC(=O)CCc2cc(OC)c(OC)c(OC)c2)cc1 the results were HNF4A DNA FP 1.6.

A portion of the library, so the mix of outcomes need not match the whole.
